# From PubChem
# D2 PAM – positive allosteric modulators of human D2 dopamine receptor | 0.23% of 360,000 active | AID 624464 | DiscoveRx D2 beta-arrestin cells, luminescence, 90 min; 100% = 57 uM dopamine signal | potentiation, % (concentration not given with the values) | P14416; active = potentiation of 50% or more; inconclusive = 30% to 50%; inactive = 30% or less;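 further: compound concentration not given in the record; tested on top of an EC20 dose of dopamine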
#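 PathHunter D2 cells, attached overnight at 37 deg C, received compound in DMSO plus dopamine at EC20 (50 nM final) for 90 min at 37 deg C. Beta-arrestin recruitment was read as luminescence after 1 h with detection reagent at ambient temperature.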
# CtBP-E1A blk – inhibitors of CtBP/E1A interaction | 0.49% of 340,000 active | activity change, % (test concentration not listed) | AlphaScreen GST-E1A/His-CtBP binding, 1536-well; active compounds read low; control for the full effect not named in the record; in the data active means activity change below about -65%; inconclusive means about -30% to -65%; inactive means above about -30%; further: on the % scale 0 is the no-effect control and ±100 the full control effect
#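 Homogeneous bead-based format: GST-tagged E1A captured on glutathione donor beads, His-tagged CtBP on nickel acceptor beads; compounds precede bead addition by 2 h at 37 °C.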
# Six1-Eya2 inh – Six1/Eya2 interaction inhibition | Q15475+O00167 | AlphaScreen GST-Six1/His-Eya2 binding, biochemical; active compounds read low; control for the full effect not named in the record | activity change, % (no concentration beside the values) | 0.56% of 360,000 active; in the data active = activity change below about -65%; inconclusive = about -30% to -65%; inactive = above about -30%; further: on the % scale 0 is the no-effect control and ±100 the full control effect
# Target sequence (O00167 whole entry, looked up): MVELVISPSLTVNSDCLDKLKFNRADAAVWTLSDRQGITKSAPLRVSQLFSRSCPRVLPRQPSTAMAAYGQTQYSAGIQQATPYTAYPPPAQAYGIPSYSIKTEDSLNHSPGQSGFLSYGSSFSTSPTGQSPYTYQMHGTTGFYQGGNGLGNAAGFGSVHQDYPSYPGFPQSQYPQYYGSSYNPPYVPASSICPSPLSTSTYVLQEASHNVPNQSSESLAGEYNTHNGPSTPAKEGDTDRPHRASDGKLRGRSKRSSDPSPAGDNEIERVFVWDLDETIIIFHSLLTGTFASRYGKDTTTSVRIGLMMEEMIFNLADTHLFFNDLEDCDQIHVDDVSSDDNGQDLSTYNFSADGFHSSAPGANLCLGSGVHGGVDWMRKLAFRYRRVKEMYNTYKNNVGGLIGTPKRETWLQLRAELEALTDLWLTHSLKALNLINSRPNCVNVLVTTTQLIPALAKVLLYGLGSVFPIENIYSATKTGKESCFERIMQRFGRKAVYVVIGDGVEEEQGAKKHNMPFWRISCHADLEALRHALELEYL
# Target sequence (Q15475 whole entry, looked up): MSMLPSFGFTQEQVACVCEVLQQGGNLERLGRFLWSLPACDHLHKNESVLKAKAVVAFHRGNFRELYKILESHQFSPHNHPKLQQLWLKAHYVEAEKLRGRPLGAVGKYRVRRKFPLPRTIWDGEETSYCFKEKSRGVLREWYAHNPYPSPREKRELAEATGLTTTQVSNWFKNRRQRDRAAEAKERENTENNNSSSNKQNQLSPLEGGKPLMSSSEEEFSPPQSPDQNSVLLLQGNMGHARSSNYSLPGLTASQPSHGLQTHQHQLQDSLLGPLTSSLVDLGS
#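 Compounds are tested against tagged Six1 and Eya2 proteins bridged by glutathione donor and nickel acceptor beads; after a one-hour incubation at 37 °C without light, AlphaScreen emission is recorded.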
# TRPML1 ag – agonists of human TRPML1 channel; 0.12% of 410,000 active; Q9GZU1; activation, % (no concentration beside the values); TRPML1-expressing cells, Ca2+ dye fluorescence, FDSS; host cell line not named in the record; reference of the full effect not given here; in the data active = activation above about 50%; inconclusive = about 30% to 50%; inactive = below about 30%; further: 0% is about no effect; the text of the record puts the active cut at 80%
#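 Tetracycline-induced TRPML1-DL cells are seeded and incubated overnight before loading with a no-wash Ca2+ dye and quencher. Agonist activity is taken from the 110 s fluorescence read following compound pin-transfer on an FDSS, before EC80 54-4 challenge.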
# D2 agonist – activates the human D2 dopamine receptor; activation, % (test concentration not listed); AID 624465; 0.084% of 360,000 active; DiscoveRx PathHunter D2 beta-arrestin, luminescence, 90 min; 100% = 57 uM dopamine signal; in the data active = activation above about 40%; inconclusive = about 15% to 40%; inactive = below about 15%; further: compound concentration not given in the record; the text of the record calls up to 30% inactive
#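 DiscoveRx PathHunter D2 beta-arrestin cells (2,100/well) attached overnight, then compound-stimulated 90 min at 37 C in HBSS/10 mM HEPES/0.1% Tween-20 buffer; beta-galactosidase complementation read by luminescence after 1 h at ambient temperature. Dopamine 57 uM final (EC100) as control.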
# PINK1 modulator – PINK1 expression modulation | PINK1 immunofluorescence, high-content cytometry, 24 h | Potency, µM (highest dose often 76.6 µM), without a hit: top-dose activation (PINK1 increase), most hits filed as activators | 0.2% of 410,000 active | AID 624263; active = well fitted activation curve with a large enough effect; inconclusive = small, poorly fitted or top-dose-only effect; inactive = flat fitted curve, though single readings scatter; cell line not stated here;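 further: potency means the concentration at half of the fitted maximal effect; % of control where 0% means no effect; nearly all actives have a fitted effect of over 65% in size; a mitochondrial uncoupler was the plate control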
#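 Readout is PINK1 immunofluorescence, quantified alongside mitochondrial, cell and nuclear markers by laser-scanning microplate cytometry. Cells from a stable line were exposed to compound titrations (5 concentrations) for 24 hours, with CCCP controls.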
# Active calls of the source: *; ? = inconclusive; / = no result given; & = joins results of further samples; [ ] = dose if it differs, or a comment.
SMILES,D2 PAM,CtBP-E1A blk,Six1-Eya2 inh,TRPML1 ag,D2 agonist,PINK1 modulator
Cc1ccc(NC(=O)Nc2cccnc2)cc1Cl,-21,-17,-6,0.9,7.5,-0.9%
O=C(CSc1n[nH]c(-c2ccncc2)n1)Nc1ccccc1,0,0,-11,2.0,-4.2,4.0%
Cc1nn(-c2cccc([N+](=O)[O-])c2)c(N)c1-c1ccccc1,-6,-15,-14,-0.9,-2.0,4.6%
CCN(CCn1cccn1)Cc1ccccc1OCC(O)CN1CCc2ccccc2C1 (stereo not drawn),-31,-6,-5,0.4,-5.6,0.2%
CC1(C)N([O-])c2cc([N+](=O)[O-])ccc2[N+]1=O,19,/,-6,0.8,?,-0.4%
COc1ccc(/C=N/NC(=S)NCc2ccccc2)cc1OC,-2,-12,-10,3.3,-6.4,-0.5%
CCC(c1nnc(SCC(=O)Nc2cccc(S(N)(=O)=O)c2)n1-c1ccc(OC)cc1)N(C)C (stereo not drawn),-3,8,-3,2.9,1.7,4.0%
CCCCNC(=O)C1(N2C(=O)c3ccccc3C2=O)CCCC1,-16,1,1,-0.1,-1.4,1.3%
Cc1ccc2nc(SCc3nnc(-c4cccs4)o3)[nH]c2c1,-8,-13,-6,1.4,-0.4,3.3%
COc1ccc(S(=O)(=O)NCCCc2ccccc2)cc1,-18,/,1,-1.3,-4.3,0.5%
CCCc1sc(N)nc1-c1ccc(C)cc1,-27,-1,-3,0.5,-1.8,0.6%
Cc1c(C(=O)N2CCCCC2)c(S(=O)(=O)NCc2ccc(N(C)C)cc2)c(C)n1C,-11,-4,0,-0.5&0.7,-0.3,-0.9%&0.9%
O=C(NC1CCCCC1)c1cccc(S(=O)(=O)N2CCCCC2)c1,-4,20,15,-0.3,-2.9,-2.8%
CCN(CC)S(=O)(=O)c1ccc2c(c1)nc(SC(C)C(N)=O)n2-c1ccc(OC)cc1 (stereo not drawn),12,0,-9,0.7,-1.9,0.0%
Cc1cccc(CC(=O)N2CCN=C2SCc2ccc([N+](=O)[O-])cc2)c1,-3,-16,-16,0.9,-0.6,-1.7%
CCOC(=O)c1c(NC(=O)Cn2nnc3ccccc32)sc2c1CCC(C)C2 (stereo not drawn),-5,-8,-14,0.2,5.2,1.5%
CC(=O)N1CCOCCOCCN(C(C)=O)CCOCCOCC1,-9,7,-2,1.8,-1.0,0.4%
C=CCn1c(SCC(=O)N(CCO)CCO)nc2sc3c(c2c1=O)CCC3,-3,9,1,0.5,0.5,-0.8%
CSc1snc(SCC(N)=O)c1C#N,-7,3,-2,-0.5,-0.9,0.2%
C=CCNC(=O)c1ccc(N(C)S(=O)(=O)c2ccc(OC)cc2)cc1,-14,3,3,1.0,-1.5,3.4%[38.3 µM]

# Full records, quoted from the list:
# CC1(C)N([O-])c2cc([N+](=O)[O-])ccc2[N+]1=O is listed as D2 PAM = 19; CtBP-E1A blk = /; Six1-Eya2 inh = -6; TRPML1 ag = 0.8; D2 agonist = ?; PINK1 modulator = -0.4%
# CCN(CCn1cccn1)Cc1ccccc1OCC(O)CN1CCc2ccccc2C1 (stereo not drawn) is listed as D2 PAM = -31; CtBP-E1A blk = -6; Six1-Eya2 inh = -5; TRPML1 ag = 0.4; D2 agonist = -5.6; PINK1 modulator = 0.2%

# Additional entries:
SMILES,D2 PAM,CtBP-E1A blk,Six1-Eya2 inh,TRPML1 ag,D2 agonist,PINK1 modulator
O=c1n(Cc2ccccc2)c(O)c2n1Cc1ccccc1N=C2c1ccc(C(F)(F)F)cc1,-3,2,0,1.3,-1.6,7.2%
CCOC(=O)c1[nH]c2cc3c(cc2c1NC(=O)CN1CCN(CCO)CC1)OCO3,-11,2,-26,-0.7,-2.5,0.1%
CCN1/C(=C2\OC(=S)N(C)C2=O)Sc2ccccc21,-10,2,0,-0.7,-1.5,?
COc1cc(C(=O)Nc2c(C(=O)O)[nH]c3ccc(Br)cc23)cc(OC)c1OC,-8,/,-16,3.1,-3.2,0.3%
COc1cccc2cccc(/C=N/n3cnnc3)c12,-9,/,-8,0.6,-3.2,-1.3%
Cc1ccc(/C=N/n2nnnc2N)cc1,-3,4,5,1.6,5.3,7.8%
Cc1c(C(=O)NCCSCc2ccccc2Cl)cccc1[N+](=O)[O-],3,-3,-6,3.4,-0.1,?
CC(C)(C)NS(=O)(=O)c1ccc(NC(=S)NC(=O)C2CCC2)cc1,-8,11,24,1.5,2.9,-0.4%
COC(=O)C1=C(Nc2ccc(OC)cc2)C=C(C)C(C(=O)OC)C1c1ccc(C)cc1 (stereo not drawn),-16,10,18,-0.5,-0.7,2.5%
CCCn1ncc(C(=O)NC2CCCN(Cc3ccc(Cl)cc3)C2)c1C (stereo not drawn),-21,1,1,1.1,-2.2,-0.7%
Cc1cccc(Oc2cc(N)cc([N+](=O)[O-])c2)c1,-8,-2,0,3.9,-5.2,11%
Cc1ccc2nc(SCC(=O)N3CCOCC3)[nH]c2c1,-19,11,1,2.4,-3.8,-0.2%
CCOc1ccc(Cl)cc1S(=O)(=O)N1CCC(C(=O)NCC2CCCO2)CC1 (stereo not drawn),-4,-15,-6,1.4,2.7,3.1%
COc1cc(C(=O)Nc2cc(Cl)ccc2-n2cncn2)ccc1OC(F)F,-3,-4,2,0.8,-3.7,1.6%
Cc1ccc(NC(=O)C(=O)NCCN2CCN(S(C)(=O)=O)CC2)cc1C,2,8,3,-0.1,0.6,0.3%
N#C/C(=C\c1cccc(NC(=O)c2ccccc2Cl)c1)C(=O)NCCc1ccccc1,9,-2,1,0.0,1.6,-1.9%
CC(C)(NO)/C(=N/O)c1ccc(Br)cc1,20,5,2,3.1,0.5,0.0%
Cc1onc(-c2c(Cl)cccc2Cl)c1C(=O)N[C@@H]1C(=O)N2[C@@H]1SC(C)(C)[C@@H]2C(=O)O,-5&-1,-1&2,6&3,0.1&1.5,-4.8&2.5,0.2%&-0.5%
Cc1cccc(NC(=O)c2sc3nc(N4CCOCC4)c4c(c3c2N)CCCC4)c1,-10,/,6,4.0,-8.6,5.9%
CCCc1cc(=O)n2[nH]c(NCc3cccs3)nc2n1,-7,3,-2,-0.7,-2.9,1.2%

# Five of the compounds above, as tab-separated lines:
Molecule	D2 PAM	CtBP-E1A blk	Six1-Eya2 inh	TRPML1 ag	D2 agonist	PINK1 modulator
CCCn1ncc(C(=O)NC2CCCN(Cc3ccc(Cl)cc3)C2)c1C (stereo not drawn)	-21	1	1	1.1	-2.2	-0.7%
Cc1cccc(Oc2cc(N)cc([N+](=O)[O-])c2)c1	-8	-2	0	3.9	-5.2	11%
Cc1ccc2nc(SCC(=O)N3CCOCC3)[nH]c2c1	-19	11	1	2.4	-3.8	-0.2%
CCOc1ccc(Cl)cc1S(=O)(=O)N1CCC(C(=O)NCC2CCCO2)CC1 (stereo not drawn)	-4	-15	-6	1.4	2.7	3.1%
COc1cc(C(=O)Nc2cc(Cl)ccc2-n2cncn2)ccc1OC(F)F	-3	-4	2	0.8	-3.7	1.6%

# The list continues.
SMILES,D2 PAM,CtBP-E1A blk,Six1-Eya2 inh,TRPML1 ag,D2 agonist,PINK1 modulator
O=C1Nc2ccccc2C1(O)Cc1ccncc1 (stereo not drawn),-3,21,-2,-0.7,-1.5,-1.6%
COC(=O)c1ccc(CNCC(=O)Nc2ccc(C(=O)OC)cc2)cc1,-4,-19,4,1.9,-3.4,1.7%
COCCOc1ccc(C(F)(F)F)cc1NC(=O)Cc1ccc(S(=O)(=O)N2CCOCC2)s1,-24,-5,-3,0.4,-1.6,7.1%
Cc1ccc(S(=O)(=O)CCC(=O)Nc2nnc(-c3cccs3)o2)cc1,-10,-12,-11,0.1,-0.6,1.2%
COC(=O)C1=C(C(=O)OC)[C@@H]2Nc3ccccc3[C@@]23C[C@@H](C(=O)OC)N(C(=O)c2cccs2)C3=N1,-4,0,13,-0.8,0.8,1.1%
O=C(c1ccco1)N1CCN(Cc2ccc(F)cc2Cl)CC1,23,-2,7,-0.2,?,-0.9%
COc1ccc(OC)c(S(=O)(=O)Nc2cc3c4c(c2)CCN4C(=O)CC3)c1,-28,4,-5,-0.1,-5.1,5.1%
CCN1C(=O)/C(=C2\SC(=S)N(c3c(C)n(C)n(-c4ccccc4)c3=O)C2=O)c2ccccc21,4,-1,6,-0.4,6.6,0.2%
CN(C)Cc1ccccc1Sc1ccc(O)cc1O,-11,-3,4,-0.4,0.9,-1.4%
CCN1CCN(C(=O)C2CCN(S(=O)(=O)c3ccc(SC)cc3)CC2)CC1,-2,0,14,-0.3,-5.5,0.5%
Cc1ccc(CC(=O)NC2CCN(C)CC2)cc1,-4,5,4,0.5,1.6,0.8%
Cc1ccc(CCc2nnc(SCC(=O)Nc3cc(Cl)ccc3Cl)n2-c2ccccc2)o1,-11,-2,-23,1.4,-4.3,11%
CC(C)c1ccc(O)c(NC(=S)NC(=O)CCc2ccccc2)c1,-2,0,-2,0.4,-1.5,10%
COc1cccc(C(=O)N(C)c2nnc(-c3ccncc3)s2)c1,11,13,-1,-1.3,0.0,0.5%
CCOC(=O)[C@H]1[C@H]2COc3ccc(Cl)cc3[C@@H]2N2C(=O)c3cc(Br)ccc3NC(=O)[C@@]12C,-7,-4,0,-0.2,-1.2,0.6%
O=C(Nc1ccc(SC(F)F)cc1)c1ccccc1F,13,/,-2,3.0,3.9,5.0%

# Grouped by structure: the entries above with a cyano group (two)
SMILES,D2 PAM,CtBP-E1A blk,Six1-Eya2 inh,TRPML1 ag,D2 agonist,PINK1 modulator
CSc1snc(SCC(N)=O)c1C#N,-7,3,-2,-0.5,-0.9,0.2%
N#C/C(=C\c1cccc(NC(=O)c2ccccc2Cl)c1)C(=O)NCCc1ccccc1,9,-2,1,0.0,1.6,-1.9%
